# Assay outcomes (PubChem)
# Ab BasE inh = inhibitors of Acinetobacter baumannii siderophore enzyme BasE. purified BasE, fluorescence polarization binding displacement. 84,000 tested, 0.1% active. inhibition, % (test concentration not listed);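 active means both replicates above 25% with normal brightness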;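 further: 0% = negative plate control signal and 100% = positive plate control signal; stock transfer was 100 nL into about 30 µL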
# LANA-nucl inh = LANA-nucleosome interaction inhibition; FITC-LANA1-23 / chicken nucleosome fluorescence polarization; active compounds read low; z-score (no concentration beside the values); 51,000 tested, 0.3% active;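 active means both repeat wells score below -2 in polarization z-score versus plate sample wells, excluding overly bright wells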;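 further: 100 nL library stock added to about 30 µL; numbers are from one replicate; some results filed as inactive read as strong as hits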
#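 Assay system: FITC-LANA peptide and chicken nucleosomes; input: 240 nM purified chicken nucleosomes (480 nM peptide binding sites), final; also added: 50 nM FITC-LANA1-23 probe; medium: TEN-BT buffer, pH 7.5; doses: pin-transferred compound, 100 nL; times: 10–45 min, room temperature; technique: fluorescence polarization; replication: duplicates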
# * hit, by the source's call; . = not tested or not shown; & = joins results of further samples. Not all compounds are listed, so the mix of outcomes need not match the whole.
SMILES,Ab BasE inh,LANA-nucl inh
CC(OC(=O)c1ccc(CN2CCCC2=O)cc1)C(=O)c1ccc(F)cc1 (stereo not given),-0.4,.
Nc1nc2c(-c3ccccc3)c(C(F)(F)F)sc2s1,4.2,.
CCCC(=O)NC(=S)Nc1cc(-c2nc3cc(CC)ccc3o2)ccc1C,1.2,-0.56
CCOC(=O)c1[nH]c(CSc2nnc(-c3ccc(OC)cc3)o2)c(C(=O)OCC)c1C,-1.2,.
CN(c1nc(N)c2c(N)nc3c(c2c1C#N)CC(=O)N3Cc1cccs1)C1CCS(=O)(=O)C1 (stereo not given),-0.1,.
CCS(=O)(=O)c1ccc2oc(SCC(=O)NCCc3ccccc3)nc2c1,-0.6,.
CCCCN1CC(O)=C(c2ccccc2)C1=N,1.4,-0.008
O=C(O)C(Cc1cnc[nH]1)N1C(=O)C2C3C=CC(C3)C2C1=O (stereo not given),-0.4,.
N#Cc1cccnc1NNC(=O)Nc1cccc2ccccc12,1.8,-0.16
CCN(CC)C(NC(=O)c1ccccc1)C(=O)c1ccccc1 (stereo not given),2.4,-1.2
CC(C)(C)OC(=O)N/N=C/c1cccc(O)c1,-0.6,-0.045
CCc1nc2c(c(=O)c3ccccc3n2C)c(=O)n1Cc1ccco1,-2.7,2.5
CCC(C)(C)C1CCC(N)CC1 (stereo not given),-0.9,.
CN(C)S(=O)(=O)c1ccc(C(=O)Oc2cc(=O)[nH]c3ccccc23)cc1,-0.2,.
Cc1nn(-c2ccc(F)cc2)c2ncc(C(=O)N3CCN(C(=O)c4ccco4)CC3)c(Cl)c12,2.0,-0.82
Cc1ccc2onc(CNC(=O)N3CCC(C(N)=O)CC3)c2c1,2.7,-1.1
C=CCNC(=O)C1CC=CCC1C(=O)Nc1ccccc1C (stereo not given),0.2,-0.54
Cc1ccc(S(=O)(=O)N2CCCC(C(=O)N3CCCCC3)C2)cc1 (stereo not given),-4.6,.
CCc1ccccc1NC(=O)Cn1nnc(C(=O)O)c1C(=O)O,1.6,-0.54
Cc1ccc(C)c(NC(=O)CN(C)C(=O)c2ccccn2)c1,1.0,.
CCOc1ccc(/C=C/C(=O)Nc2nc(-c3ccc(C)cc3)c(C)s2)cc1,1.0,.
COc1cc(C=Nc2ccccc2)cc(OC)c1O,4.1,0.071
CCN1CCN(C(=O)c2cc3c(=O)n(C)c4ccccc4c3n2C)CC1,-0.8,0.57
COC(=O)CN1CCN(c2nc3c(c(=O)[nH]c(=O)n3C)n2Cc2ccc(Cl)c(Cl)c2)CC1,1.1,-0.4
Cc1ccc(C)c2c1c1ccccc1n2C,0.6,0.59
O=C1CCC(C(=O)O)CC1,-0.9,-0.5
COc1ccc(/C=C(\C#N)C(=O)OCc2nc(-c3ccc(C)cc3)no2)cc1,-0.1,.
COc1cc(CC(C#N)(CO)c2nc3ccccc3[nH]2)ccc1OC(F)F (stereo not given),-1.2,.
CCOC(=O)c1ccc(/N=C/N(C)C)o1,1.4,.
c1cncc(-c2nnc(SCC3CCCCC3)o2)c1,5.5,0.0095
CC1CC(C)CN(Cn2ncn(C)c2=S)C1 (stereo not given),4.5,.
N#CCc1ccc(Oc2ncnc3c2oc2ccccc23)cc1,-0.1,.
CCC(CO)N=CC1=C(O)CC(c2ccccc2)CC1=O (stereo not given),0.1,1.1
Cc1ccc(C)c2[nH]c(=O)c(CN(Cc3ccco3)Cc3nnnn3C(C)(C)C)cc12,-0.3,-1.8
CCN1CCC(NC2c3ccccc3-c3ccccc32)CC1,-2.2,0.52
Cc1ccc2c(c1)N(CC(=O)NC(C)C)C(=O)c1cccnc1O2,1.0,-1.3
COC(=O)c1cc(COC(=O)/C=C/c2ccc(F)cc2)oc1C,-0.5,.
O=C(N/N=C/c1ccc(-n2ccnc2)cc1)c1ccc2c(=O)n3c(nc2c1)CCC3,1.8,.
CC(C)n1c(SCC(=O)NC2CC2)nnc1-c1ccco1,-0.5,-0.018
Cc1oc(CC(C)C)cc1C(N)=O,0.4,-0.22
O=C1CC(Nc2ccccc2)C(=O)N1Cc1ccccc1 (stereo not given),-2.1,2.1
CN(C)C(=S)c1nc2ccccc2[nH]1,-2.1,1.8
Cc1ccc(S(=O)CCOc2ccc(Cl)cc2Cl)cc1 (stereo not given),.,0.62
CCOC(=O)c1nn(-c2ccccc2)c(=O)c2c(N)c(C#N)ccc12,0.5,0.29
C#C[C@]1(O)CC[C@H]2[C@@H]3CCc4cc(OC)ccc4[C@H]3CC[C@@]21C,1.4,-0.51&0.059
Clc1ccc(SCCc2nc3ccccc3o2)cc1,0.8,.
O=C(NCc1cccnc1)c1cccc(C(=O)NCc2cccnc2)c1,0.7,0.62
CC(C)C1N(c2ccccc2)CCN1c1ccccc1,1.0,-0.0095
CCN(CC)C(=O)C(N)Cc1ccccc1 (stereo not given),3.1,.
O=c1[nH]nc(Sc2ncn[nH]2)c(=O)[nH]1,0.2,.
CO[C@H]1C[C@H](O[C@H]2[C@H](C)[C@@H](OC3O[C@H](C)C[C@H](N(C)C)[C@H]3O)[C@@H](C)C[C@]3(CO3)C(=O)[C@H](C)[C@@H](O)[C@@H](C)[C@@H](C)OC(=O)[C@@H]2C)O[C@@H](C)[C@@H]1O (stereo not given in full),-3.4,0.19&1.1
CCOc1ccc(S(=O)(=O)Nc2cccc(-c3cn4cccc(C)c4n3)c2)cc1,-0.3,.
O=C(CCSc1nnc(-c2ccncc2)o1)Nc1ccccc1,1.5,0.16
O=C(Nc1ccc(S(=O)(=O)NC2=NCCCCC2)cc1)C1=NN(c2ccccc2)C(=O)CC1,-0.4,.
C/C(=C/C(=O)C(F)(F)F)N1CCc2ccccc2C1,-2.3,.
COc1ccc(-c2nnc(SC)n2-c2ccccc2)cc1,0.1,.
CCCCC(C)(C)[C@H](O)/C=C/[C@H]1[C@H](O)CC(=O)[C@@H]1C/C=C\CCCC(=O)O,-0.8,0.022
CCOC(=O)c1c(C)oc2nc(COc3ncnc4c3cnn4-c3ccccc3)nc(N)c12,4.1,.
N#CC1=C(c2ccc(Cl)cc2)COC1=O,-5.6,-0.5
NC(=O)NC(CC(=O)Nc1ccc(S(N)(=O)=O)cc1)c1ccccc1Cl (stereo not given),1.8,.

# New compounds follow.
SMILES,Ab BasE inh,LANA-nucl inh
Cc1nnc(N2C(=O)C3C4C=CC(C4)C3C2=O)s1 (stereo not given),1.4,0.41
N#Cc1ccccc1NC(=O)CC1Sc2ccccc2NC1=O (stereo not given),-0.1,-0.49
CCOC(=O)c1cn(CC(C)C)c(=O)c2ccccc12,-0.3,-0.57
CCc1cc(/C(Cc2cscn2)=N\O)c(O)cc1O,-1.0,.
CC(=O)N1CCc2cc(C(=O)CN3CC(C)CC(C)C3)ccc21 (stereo not given),-1.9,0.24
Cc1nnc(NC2=NCCC2)o1,1.9,.
Cc1ccc(-c2nn(-c3ccccc3)cc2/C=C/C(=O)OCC(=O)c2c(N)n(C)c(=O)n(C)c2=O)o1,1.0,.
O=C(COc1nncc2ccccc12)NC1CCS(=O)(=O)C1 (stereo not given),-2.7,.
COc1ccc(C(=O)n2c3c(c(=O)n2-c2ccccc2)Cc2ccc(OC)cc2O3)cc1,0.4,0.26
CCc1ccc(NC(=O)COC(=O)c2ccco2)cc1,0.1,.
CCSc1nnc(C2CCCN(CC(=O)N3CCN(c4ccccc4)CC3)C2)n1CC (stereo not given),0.4,-0.096
O=C1CCCC1Sc1nnc(-c2ccncc2)n1-c1ccc(F)cc1 (stereo not given),0.0,.
CNC(=O)c1ccsc1NC(=O)c1ccc(F)cc1,0.2,0.96
O=C(Cc1n[nH]c(=O)c2ccccc12)N/N=C/C=C/c1ccccc1,5.3,0.011
O=C1CCCC2=C1C(c1ccccn1)n1ncnc1N2 (stereo not given),0.6,-0.74
COC(=O)C1SCCN1S(=O)(=O)c1ccc(-c2cc(C(F)(F)F)on2)s1 (stereo not given),1.7,.
O=C(NCC(c1ccco1)N1CCc2ccccc21)Nc1ccccc1 (stereo not given),0.9,-0.61
Cc1cc(C(=O)OCc2csc(CC(=O)Nc3ccccc3C)n2)c(C)o1,0.5,.
CC(=O)N1C(C(=O)O)CSC1c1ccc(C)cc1 (stereo not given),.,0.029
COc1cccc(/C=N/NC(=O)CC2C(=O)NN=C2C)c1O (stereo not given),1.1,-0.5
Cc1cc2nsnc2c(S(=O)(=O)NCC(=O)O)c1C,-4.8,1.9
CCOc1ccc(NC(=O)CCCn2c(=O)c3cccn3c3ccccc32)cc1,0.1,-0.33
O=C(O)CCC(=O)Nc1ccc(S(=O)(=O)Nc2ccc(F)cc2)cc1,-1.1,0.11
C/C(=N\NC(=O)NC1CCCCC1)c1ccc(OC(F)F)cc1OC(F)F,1.3,.
CCNc1ncnc2oc(C)c(C(=O)OCC)c12,1.0,.
Cc1cc(S(=O)(=O)N2CCSCC2)cc(C)c1F,.,0.69
COc1ccc(C2=NN(CCc3ccccn3)C(=O)C2)cc1,0.0,1.5
C=C1C2(C(=O)N3CCc4ccccc43)CCC(C2)C1(C)C (stereo not given),0.8,0.33
O=C(NC(=O)N1CCCC1)c1ccc(Cl)cc1,2.2,-1.4
O=C(CSc1nnc(C23CC4CC(CC(C4)C2)C3)o1)NCCOc1ccccc1,2.6,-0.34
Cn1cnnc1SCc1ccc(C(=O)N=Nc2c(O)n(C)c3ccccc23)cc1,0.2,.
CC1CCN(C(=O)COC(=O)c2nn(-c3ccccc3C(F)(F)F)cc2O)CC1,-3.6,.
Fc1ccccc1COc1cccc2cccnc12,-1.5,0.08
O=S(=O)(c1cccc(-c2nn3c(-c4ccncc4)nnc3s2)c1)N1CCCCC1,2.4,.
COc1ccccc1NC(=O)Nc1sc2c(c1C(N)=O)CCC2,0.7,.
Cc1ccc(CN(Cc2ccco2)C(=S)NCC(=O)NC2CC2)cc1,-0.3,-0.24
O=C(O)/C=C/C(=O)N1CCOCC1,2.2,.
O=C(c1cc2ccccc2oc1=O)N(Cc1ccccc1)Cc1ccccc1,4.4,.
CCC(CN1CCOCC1)NS(=O)(=O)c1cc2[nH]c3c(c2cc1C)C(=O)CC(C)(C)C3 (stereo not given),1.2,0.17
CCCNc1nc2nc3ccc(C)cn3c(=O)c2cc1C(N)=O,2.6,0.55
C/C=C/C(=O)NCc1ccccc1,2.0,.
NC(=O)CNc1ncc(C(F)(F)F)cc1Cl,.,0.2
Cc1ccc(/C=N/N=C(/C(=O)c2ccccc2)c2ccccc2)o1,1.2,.
CSc1ccc(C2CC(=O)NC3=C2C(=O)CCC3)cc1 (stereo not given),1.4,0.28
CCC(C)NC(=O)C1CCN(c2ncccn2)CC1 (stereo not given),0.1,0.11
CCOc1ccc(NC(=O)C(C)C(Cc2ccc(C)cc2)C(=O)O)cc1 (stereo not given),-0.1,.
Cc1sc2ncnc(NCC3CN(Cc4ccccc4)CCO3)c2c1C (stereo not given),-0.9,.
CCC(C)NCCOc1ccc(Cl)c(Cl)c1 (stereo not given),-1.2,.
C/C(=C\C(=O)C(F)(F)F)NCc1ccccn1,0.3,.
CC(=O)Nc1ccc(NC(=O)C2CCCCN2C(=O)C2CCC(C)CC2)cc1 (stereo not given),-0.9,-0.32
CC(Sc1nnnn1-c1ccccc1)c1nc2scc(-c3ccccc3)c2c(=O)[nH]1 (stereo not given),-0.6,.
CCCCc1c(C)c(C#N)c2[nH]c3ccccc3n2c1=O,3.4,.
CNCc1c(C)nn(Cc2ccccc2Cl)c1C,1.5,.
C=C(C)C(=O)Nc1ccc(O)c(-c2nc3ccccc3[nH]2)c1,-1.0,.
Cc1ccc(C(CC(=O)N2CCOCC2)c2ccccc2)c(O)c1C (stereo not given),-3.0,-0.53
C/C(=N\NC(=O)Cn1nnc(-c2ccccc2)n1)c1nonc1C,1.4,0.85
O=C(OCc1cccc(C(F)(F)F)c1)c1ccccc1F,-0.3,.
COC(=O)c1ccc2c(=O)[nH]c(COC(=O)c3cccnc3Nc3ccccc3OC)nc2c1,-1.4,.

# Rewritten as tab-separated lines: 18 of the compounds above.
structure	Ab BasE inh	LANA-nucl inh
Cc1ccc(CN(Cc2ccco2)C(=S)NCC(=O)NC2CC2)cc1	-0.3	-0.24
O=C(O)/C=C/C(=O)N1CCOCC1	2.2	.
O=C(c1cc2ccccc2oc1=O)N(Cc1ccccc1)Cc1ccccc1	4.4	.
CCC(CN1CCOCC1)NS(=O)(=O)c1cc2[nH]c3c(c2cc1C)C(=O)CC(C)(C)C3 (stereo not given)	1.2	0.17
CCCNc1nc2nc3ccc(C)cn3c(=O)c2cc1C(N)=O	2.6	0.55
C/C=C/C(=O)NCc1ccccc1	2.0	.
NC(=O)CNc1ncc(C(F)(F)F)cc1Cl	.	0.2
Cc1ccc(/C=N/N=C(/C(=O)c2ccccc2)c2ccccc2)o1	1.2	.
CSc1ccc(C2CC(=O)NC3=C2C(=O)CCC3)cc1 (stereo not given)	1.4	0.28
CCC(C)NC(=O)C1CCN(c2ncccn2)CC1 (stereo not given)	0.1	0.11
CCOc1ccc(NC(=O)C(C)C(Cc2ccc(C)cc2)C(=O)O)cc1 (stereo not given)	-0.1	.
Cc1sc2ncnc(NCC3CN(Cc4ccccc4)CCO3)c2c1C (stereo not given)	-0.9	.
CCC(C)NCCOc1ccc(Cl)c(Cl)c1 (stereo not given)	-1.2	.
C/C(=C\C(=O)C(F)(F)F)NCc1ccccn1	0.3	.
CC(=O)Nc1ccc(NC(=O)C2CCCCN2C(=O)C2CCC(C)CC2)cc1 (stereo not given)	-0.9	-0.32
CC(Sc1nnnn1-c1ccccc1)c1nc2scc(-c3ccccc3)c2c(=O)[nH]1 (stereo not given)	-0.6	.
CCCCc1c(C)c(C#N)c2[nH]c3ccccc3n2c1=O	3.4	.
CNCc1c(C)nn(Cc2ccccc2Cl)c1C	1.5	.
